Assay outcomes deposited in PubChem BioAssay by National Center for Advancing Translational Sciences (NCATS).
HPGD inh: inhibitors of human 15-hydroxyprostaglandin dehydrogenase (HPGD); P15428; purified HPGD, NADH fluorescence kinetic, PGE2 substrate; Potency, µM, for the others: top-dose activity change, negative = inhibition, hits mostly inhibitors; actives 4.3% (n = 150,000); active = well fitted inhibition curve with a large enough effect (not every such curve was filed as active); inconclusive = small, poorly fitted or top-dose-only effect, or another doubt; inactive = no such curve, though single readings can be large or run the other way;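 further: top concentration of the series not given in the record; plate controls included wells without enzyme; inactives centre near -10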
Target sequence (P15428 whole entry, looked up): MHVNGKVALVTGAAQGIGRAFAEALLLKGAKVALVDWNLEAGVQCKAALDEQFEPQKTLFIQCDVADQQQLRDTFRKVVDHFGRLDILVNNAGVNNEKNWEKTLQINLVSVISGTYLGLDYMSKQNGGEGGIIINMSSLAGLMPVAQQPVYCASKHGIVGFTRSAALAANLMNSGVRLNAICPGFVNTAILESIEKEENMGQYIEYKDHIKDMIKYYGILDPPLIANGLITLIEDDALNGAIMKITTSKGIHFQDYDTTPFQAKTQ
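NADH formation kinetics: reaction with 30 uM PGE2 and 1 mM NAD+ (final), 20 nM enzyme, Tris-HCl pH 8 with Tween 20, after 15 min compound preincubation at room temperature. Fluorescence change, last versus first of five reads.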
An asterisk follows results filed as active; u = inconclusive; & = joins results of further samples. On the % scale 0 is the no-effect control and ±100 the full control effect; potency means the concentration at half of the fitted maximal effect. Only part of the results is shown; count on the stated rates, not on these rows.

HPGD inh,Compound
-13%,CCOc1ccc(/C(O)=C2/C(=O)C(=O)N(c3nc(C)c(C)s3)C2c2ccco2)cc1 (stereo unspecified)
-8%,Cc1cc(=O)[nH]c(N/N=C/c2ccc(OC(=O)c3ccco3)cc2)n1
-7%,O=C(NCC1(N2CCOCC2)CCCCC1)c1ccc(Cl)c(S(=O)(=O)NCc2ccco2)c1
-9%,Cc1ccc(C)c(-n2c(CNC(=O)c3ccco3)nnc2SCC(=O)Nc2nccs2)c1
-11%,CN(C)/C=C(\C#N)C(=O)c1cccnc1Oc1ccc(F)cc1F
u,COc1ccc(-c2cc3nc(C)cc(C)n3n2)cc1
-19%,O=C(N/N=C/c1cc(Cl)ccc1O)C(=O)Nc1ccccc1OC(F)(F)C(F)F
-10%,COc1cccc(OCCOc2c(OC)cccc2OC)c1

HPGD inh,Compound
-18%,Cc1ccc(N(Cc2ccccc2F)S(C)(=O)=O)cc1C
-10%,CCCCCCCCCCCCCCCCCCc1ccc(C(=O)/C=C\C(=O)O)cc1
-17%,CCc1ccc(/C=C2/C(=O)N(c3ccccc3)C(=S)N2CC(=O)OC)s1
-21%,Cc1noc(NS(=O)(=O)c2ccc(N3Cc4ccccc4C3=O)cc2)c1C
u,O=C(COC(=O)c1ccco1)c1ccc2ccccc2c1
-6%,C=CCc1ccc(OCCOCCNCCCC)c(OC)c1
u,C=CCN(CC=C)S(=O)(=O)c1ccc(NC(=S)NC(=O)/C=C/c2cccc3ccccc23)cc1
u,COc1cc2oc(=O)cc(-c3cccc(-c4ccc(C(F)(F)F)cc4)c3)c2c(OC)c1OC

HPGD inh,Compound
-18%,O=C1c2oc3ccc(F)cc3c(=O)c2C(c2cccc(O)c2)N1CCCN1CCOCC1 (stereo unspecified)
-1%,CC1CCN(Cc2csc(N)n2)CC1
-20%,COC(=O)c1[nH]c2c(c1C)C(=O)CCC2
-7%,CC(O)CNc1nc2sc3c(c2c(=O)n1CCc1ccccc1)CCCCC3 (stereo unspecified)
1%,CC(CCc1ccccc1)NC(=O)C1CCN(S(=O)(=O)c2cnc[nH]2)CC1 (stereo unspecified)
-11%,O=C1O[C@@H]([C@H](O)[C@H](O)[C@H](O)CO)[C@@H](O)[C@@H]1O
u,COc1cccc(C(=O)Nc2ccc3nc(N4CCN(c5ncccn5)CC4)cc(C)c3c2)c1OC
u,COc1ccccc1N=Cc1nc(-c2ccccc2)oc1OC(C)=O

HPGD inh,Compound
-4%&1%,COC(=O)Cc1csc(N)n1
u,O=C(c1ccc([N+](=O)[O-])cc1)n1nc(-c2ccccc2)nc1NCc1ccccc1
-7%,O=c1c2ccccc2c2c(O)nc(-c3ccccc3)n2n1Cc1ccccc1
0%,c1ccc2[nH]c(NCCN3CCOCC3)nc2c1
-11%,CN(C(=O)CSc1nnc(N)s1)c1c(N)n(Cc2ccccc2)c(=O)[nH]c1=O
-7%,CC(C)COC(=O)/C(C#N)=C/c1c[nH]c2ccccc12
-13%,Cc1ccccc1Oc1ccc(Oc2ccccc2C)nn1
-12%,C/C(=N/NC(N)=S)c1ccccc1[N+](=O)[O-]

HPGD inh,Compound
-14%,COc1ccc(C(=O)Nc2cccnc2)cc1S(=O)(=O)N1CCOCC1
-8%,COC(=O)C1=C(C)NC(=O)CC1c1cc2c(cc1Br)OCO2 (stereo unspecified)
-6%,COC(=O)N1CC=CC1(C)C(=O)O (stereo unspecified)
-15%,CS(=O)(=O)N(CC(=O)O)c1ccc2c(c1)OCO2
-16%,Cn1c(=O)c2c(nc(Br)n2CC(=O)C23CC4CC(CC(C4)C2)C3)n(C)c1=O
-11%,CC(C)N(C(=O)CSc1nnc(CNc2ccc(F)cc2)o1)C(C)C
1%,Cc1ccc(S(=O)(=O)C2(C(=O)Nc3cccnc3)CC2)cc1
-10%,N#Cc1c(NC(=O)CSc2ccccn2)oc(-c2ccccc2)c1-c1ccccc1

HPGD inh,Compound
-5%,CCCOc1ccc(N2C(=O)CC(N3CCN(c4ccccc4F)CC3)C2=O)cc1 (stereo unspecified)
-14%,Cc1sc2ncnc(NCCc3ccc(S(N)(=O)=O)cc3)c2c1C
-6%,CC(C)(C)CC(C)(C)NC1=CC(=O)OC12CCCCC2
-12%,COc1ccc(OC)c(-n2cnnn2)c1
-11%,COc1ccc(-c2c(-c3ccc(OCC(=O)NN)cc3O)n[nH]c2C(F)(F)F)cc1
-9%,COc1cccc(-c2nnc(SCC(=O)Nc3ccc4c(c3)OCCO4)n2Cc2ccco2)c1
-8%,Cn1c(=O)c2c(nc(NCC3CCCO3)n2Cc2cccc(Br)c2)n(C)c1=O (stereo unspecified)
-20%,COc1ccc(N2COC3c4cccc5cccc(c45)C32)cc1 (stereo unspecified)

HPGD inh,Compound
-12%,N#CCC(N)=C(C#N)C#N
-6%,COc1ccc(OC(=O)c2cc(S(=O)(=O)N3CCCC3)ccc2Cl)cc1
-27%,COc1ccc(CNC(=S)Nc2ccccc2C)cc1
u,Cc1ccc(-c2cc(-c3nnc(SCC(=O)NC(C)C(C)C)n3N)c3ccccc3n2)cc1 (stereo unspecified)
-19%,C/C(=N\NC(=S)NCCc1ccccc1)c1ccc(C)cc1
-23%,COc1ccc2c(c1)CCc1c(C(=O)N3CCCc4ccccc43)noc1-2
-1%,Cc1cc(NC(=O)CSc2nc(C(C)C)nc3sc(C)c(C)c23)no1
-8%,Cc1nc(NCC2CCCO2)c2nnn(Cc3ccccc3Cl)c2n1 (stereo unspecified)

Some values from above.
HPGD inh, COc1ccc2c(c1)CCc1c(C(=O)N3CCCc4ccccc43)noc1-2 reads -23%
HPGD inh, Cc1nc(NCC2CCCO2)c2nnn(Cc3ccccc3Cl)c2n1 (stereo unspecified) reads -8%

New compounds follow:
HPGD inh,Compound
-4%,Cc1nc(CS(=O)c2ccc(Cl)cc2)cc(NCc2ccc(Cl)cc2Cl)n1 (stereo unspecified)
-7%,CC1(OC(=O)c2ccc(Cl)nc2)C(=O)C=C2C=C3CCCN3C=C2C1=O (stereo unspecified)
-8%,Cc1ccc(Cc2cnc(NC(=O)CN3CCOCC3)s2)cc1Cl
-2%,CCOC(=O)Nc1cccc(OCC(=O)Nc2ccccc2OCC)c1
-13%,CCOc1cc(NC2CS(=O)(=O)CC2O)c(OCC)cc1NC(=O)c1ccccc1 (stereo unspecified)
-14%,CC(C)(C)C(=O)NNc1nc(-c2ccccc2)c2cc(Br)ccc2n1
-13%,COc1cc(C(=O)N/N=C/c2ccc(OC(=O)N3CCOCC3)cc2)cc(OC)c1OC
u,Brc1cccc(-c2nnc3sc(CNCc4ccco4)cn23)c1

HPGD inh,Compound
u,Nc1c(C(=O)NC2CCCC2)c2nc3ccccc3nc2n1/N=C/c1ccco1
-18%,O=C(NC(O)C(=O)c1cccs1)c1cccnc1 (stereo unspecified)
-1%,COc1ccc(C(CC(=O)Nc2nccs2)n2cccc2)cc1 (stereo unspecified)
-8%,CC(C)=NOCc1ccc(-c2cn([C@@H]3COC[C@H]3O)nn2)cc1
-4%,COC(=O)N1C2CC3(C)CC(=O)CC1(C)C3c1ccccc12 (stereo unspecified)
-19%,CCCc1noc2c1C(c1ccoc1)C(C#N)=C(N)N2 (stereo unspecified)
-8%,O=C(NCC1CCCO1)C(c1ccc(F)cc1)N(Cc1ccc(F)cc1)C(=O)Cn1nnc(-c2cccs2)n1 (stereo unspecified)
-19%,CC(=O)Nc1ccc2c(c1)N(C(=O)CN(C)C)c1ccccc1CC2

HPGD inh,Compound
-22%,O=C(c1ccc(C(=O)N2CCCc3ccccc32)nc1)N1CCCc2ccccc21
-20%,COC(=O)C1C(=O)c2c([nH]c(C(=O)OC3CCCC3)c2C)CC1C (stereo unspecified)
-12%,O=C(Cn1cnc2c(cnn2-c2ccccc2)c1=O)c1ccc(Cl)cc1
-21%,O=C(Nc1nc(-c2ccc(F)cc2)cs1)c1ccc(N2C(=O)CCC2=O)cc1
-3%,Nc1c(C(=O)Nc2cccc(Cl)c2Cl)sc2nc(-c3cccnc3)ccc12
-1%,COc1nc(NC2CCCCC2)nc(N2CCCCCC2)n1
u,CCN(CC)S(=O)(=O)c1ccc(C(=O)OCC(=O)Nc2ccc(-c3nc4ccc(C)cc4s3)cc2)cc1
-18%,Cc1ccc2c(CSc3nncs3)cc(=O)oc2c1

The closing 3 entries of the section before lead into the next:
HPGD inh,Compound
-1%,COc1nc(NC2CCCCC2)nc(N2CCCCCC2)n1
u,CCN(CC)S(=O)(=O)c1ccc(C(=O)OCC(=O)Nc2ccc(-c3nc4ccc(C)cc4s3)cc2)cc1
-18%,Cc1ccc2c(CSc3nncs3)cc(=O)oc2c1
-10%,COC(=O)C1C(=O)C=C(N2CCOCC2)CC1(C)C (stereo unspecified)
-2%,CCOc1ccc(CCNC(=O)Cn2c(-c3nonc3N)nc3ccccc32)cc1OCC
-15%,COC(=O)c1sc(N)c(C(=O)OC)c1CSc1nnc(-c2ccccc2Cl)n1C
-13%,O=C(O)CCCNC(=O)CCCNC(=O)C(c1ccccc1)c1ccccc1
-23%,O=C(/C=C/c1ccccc1Cl)c1ccccc(=O)c1O
-16%,N=C1C(=O)OCC1c1ccccc1NC(=O)c1ccc(F)cc1 (stereo unspecified)
-13%,CN1CCN(CC(=O)Nc2ccc(Cl)cc2Cl)CC1
-10%,COC(=O)c1ccc(NC(=O)CN(c2ccc3c(c2)OCO3)S(C)(=O)=O)cc1

HPGD inh,Compound
-16%,Cc1ccc(C)c(NS(=O)(=O)c2cc(C(=O)NCCSC3CCCCC3)ccc2C)c1
-11%,CCOc1ccc2c(C)nc(NC3=NC(C)(C)C=C(C)N3)nc2c1
u,COc1ccc(NC(=O)C(=O)N/N=C/c2cc(C)n(-c3cccc(Cl)c3Cl)c2C)c(OC)c1
-7%,O=C(CN(Cc1ccccc1)C(=O)c1ccco1)NCc1ccc(F)cc1
-9%,Nc1ccnc(C(F)(F)F)c1C(=O)c1ccccc1
-25%,COc1ccccc1NC(=O)Cn1cncc1-c1ccc([N+](=O)[O-])cc1
-6%,COC(=O)Cc1c(O)ccn(Cc2cccc3ccccc23)c1=O
-8%,Cc1cc(NC2C3CC4CC(C3)CC2C4)n2nnnc2n1 (stereo unspecified)

Four compounds drawn at random from those above:
HPGD inh,Compound
-7%,CC1(OC(=O)c2ccc(Cl)nc2)C(=O)C=C2C=C3CCCN3C=C2C1=O (stereo unspecified)
-1%,COc1ccc(C(CC(=O)Nc2nccs2)n2cccc2)cc1 (stereo unspecified)
-1%,Cc1cc(NC(=O)CSc2nc(C(C)C)nc3sc(C)c(C)c23)no1
-12%,N#CCC(N)=C(C#N)C#N

Following part.
HPGD inh,Compound
-2%,CC(NC(=O)c1ccc(F)cc1)c1nc2ccccc2n1Cc1ccccc1F (stereo unspecified)
-15%,CCOC(=O)C1CCN(C(c2ccccn2)c2c(C)[nH]c3ccccc23)CC1 (stereo unspecified)
-7%,Cc1ccc(S(=O)(=O)n2nc(C)c(C#N)c2N)cc1
u,CCNc1ncc2nc(-c3ccccc3)c(=O)n(-c3ccc(OC)cc3)c2n1
-6%,O=S1(=O)C=C(SCc2ccc(Cl)c(Cl)c2)Nc2ccccc21
-5%,COc1ccc(Nc2nc(N)nc(CSc3nnc(C)s3)n2)cc1
-6%,N#CCCn1[nH]c(-c2ccccc2)cc1=O
-12%,Cc1ccc(C(=O)Cn2nnc3ccccc32)cc1C

HPGD inh,Compound
-10%,Cc1occc1-c1nnc(SCC(=O)N2c3ccccc3CCc3ccccc32)n1C
-5%,CC(NS(C)(=O)=O)C(c1cccs1)N1CCN(c2ccc(F)cc2)CC1 (stereo unspecified)
-8%,CC(C)(C)OC(=O)C1=NOC2(C=CC(=O)C=C2)C1
-16%,Cc1ccc2cn[nH]c2c1NC(=S)NC(=O)c1ccccc1
-3%,O=[N+]([O-])c1c(C(Cl)Cl)nn(-c2ccc(Cl)cc2)c1N1CCCCC1
-5%,O=C(Nc1cccc(Br)c1)c1ccc(Cl)c(S(=O)(=O)N2CCOCC2)c1
-2%,COc1ccccc1C(=O)N1CCc2ccccc21
16µM*,O=C(Nc1ccc(Cl)cc1F)c1ccccc1Br

HPGD inh,Compound
-1%,Cc1cccc(N(CC(=O)NCCSCc2ccco2)S(=O)(=O)c2ccccc2)c1
u,COCC(=O)Nc1ccc(N(C)C)cc1
-6%,CC1CN(S(=O)(=O)c2ccc(NC(=O)CCCN3C(=O)c4ccccc4C3=O)cc2)CC(C)O1 (stereo unspecified)
-14%,CC(C)(C)c1ccc2c(c1)OC(C(=O)N/N=C\c1ccccn1)CO2 (stereo unspecified)
-2%,COc1ccc(CNC(=O)C2CC(c3cccc([N+](=O)[O-])c3)=NO2)cc1 (stereo unspecified)
-8%,Nc1nonc1-c1noc(-c2ccccc2)n1
-4%,O=C(c1cccc(Br)c1)N1CCN(C(=O)c2cccc(Br)c2)CC1
-17%,COc1ccc(CCC(=O)OC(C)C(=O)c2ccc(C)cc2)cc1 (stereo unspecified)

HPGD inh,Compound
-6%,CC(C)(C)N1CC(COc2ccccc2)OC1=O (stereo unspecified)
-9%,CC(c1ccccc1)n1cc(C(=O)NCc2ccncc2)nn1 (stereo unspecified)
0%,NCCC(=O)O
-12%,CCOc1ccc(C2C(C#N)=C(N)Oc3nc[nH]c(=O)c32)cc1OC (stereo unspecified)
-1%,CCn1cc(CNC(=O)c2cccc([N+](=O)[O-])c2)cn1
7%,CCOC(=O)N1CCN(C(=O)Nc2cccc(Cl)c2)CC1
-17%,O=C(CCn1c(=O)oc2ccccc21)NCCCN1CCCC1=O

Structures above printed as active in HPGD inh.
HPGD inh,Compound
16µM*,O=C(Nc1ccc(Cl)cc1F)c1ccccc1Br
